T cruzi repl: T. cruzi replication inhibition; AID 1885; inhibition, % (no concentration beside the values); actives 1.4% (n = 300,000); T. cruzi beta-gal in NIH3T3, luminescence, 90 h;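 active = mean inhibition across valid replicates above about 55%, limit read from the data; inconclusive = mean below that limit but half or more replicates reach it; inactive = mean below it, under half of replicates reach it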;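 also: signal also drops with host cell toxicity which is not excluded here; 0% = plate median of DMSO wells and 100% = zero luminescence signal; higher percent means less beta-gal luminescence so fewer parasites; stock transfer was 50 nL into about 50 µL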
E coli growth: E. coli growth inhibition | AID 1053175 | Escherichia coli growth, OD600, 23 h; active compounds read low | OD600 absorbance (no concentration beside the values) | actives 0.21% (n = 330,000);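 active = OD600 absorbance below the run mean of sample wells minus 3.6 SD, in any replicate, cut at about 0.56 in these data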;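 also: stock transfer was 300 nL into about 60 µL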
UCH37 inh: inhibitors of human deubiquitinating enzyme UCH37; purified proteasome/UCH37, Ub-AMC cleavage fluorescence; inhibition, % (concentration not given with the values); actives 0.33% (n = 330,000);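 active = mean of two replicates above 20%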;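 also: 0% = compound-free wells with enzyme and 100% = wells lacking proteasome; stock transfer was 100 nL into about 20 µL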
Target sequence (Q9Y5K5 whole entry, looked up): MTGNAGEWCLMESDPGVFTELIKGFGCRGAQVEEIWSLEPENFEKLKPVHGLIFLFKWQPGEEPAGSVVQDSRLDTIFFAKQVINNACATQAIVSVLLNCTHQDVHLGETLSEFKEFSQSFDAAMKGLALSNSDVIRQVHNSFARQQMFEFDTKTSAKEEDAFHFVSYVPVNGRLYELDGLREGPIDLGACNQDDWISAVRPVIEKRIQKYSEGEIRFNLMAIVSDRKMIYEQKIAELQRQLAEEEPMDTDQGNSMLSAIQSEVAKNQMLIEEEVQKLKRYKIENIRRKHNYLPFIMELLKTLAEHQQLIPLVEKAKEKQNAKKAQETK
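Signal – fluorescence, ex 355 nm, em 460 nm · System – Proteasome-bound UCH37 · Input – 0.15 nM proteasome as dispensed · Timing – 30 min preincubation with enzyme, 25 min cleavage at room temperature · Read-out basis – percent inhibition of cleavage signal versus uninhibited and no-proteasome wells · Medium – Tris-HCl pH 7.4 with ATP-MgCl2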
Beta cell apopt: blocks beta cell apoptosis. INS-1E cytokine-induced death, ATP luminescence, 48 h; percent of positive-control rescue, neutral wells zero. actives 0.8% (n = 300,000). protection from apoptosis, % (no concentration beside the values);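 active = all replicates at 75% or more, or half of them and the mean; inconclusive = half reach 75% but not the mean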;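 also: 0% = cytokine-treated negative control wells and 100% = positive control rescue; higher means more ATP so stronger rescue from cytokine killing; wells of about 40 µL received 100 nL stock; the first replicate is given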
MLL AF4-AF9 inh: inhibitors of human MLL-AF4/AF9 interaction. inhibition, % at 10 µM. AlphaScreen, biotin-AF4 peptide binding to FLAG-AF9. actives 0.47% (n = 350,000). P42568;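 active = every replicate reaching a set inhibition limit, whatever the replicate mean, cut at about 25% in these data; inconclusive = mean inhibition reaches that limit but some replicates miss it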;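 also: 0% = plate neutral control median and 100% = total signal loss; the record names both 10 and 1 µM as test concentration; the first replicate is given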
Target sequence (P42568 whole entry, looked up): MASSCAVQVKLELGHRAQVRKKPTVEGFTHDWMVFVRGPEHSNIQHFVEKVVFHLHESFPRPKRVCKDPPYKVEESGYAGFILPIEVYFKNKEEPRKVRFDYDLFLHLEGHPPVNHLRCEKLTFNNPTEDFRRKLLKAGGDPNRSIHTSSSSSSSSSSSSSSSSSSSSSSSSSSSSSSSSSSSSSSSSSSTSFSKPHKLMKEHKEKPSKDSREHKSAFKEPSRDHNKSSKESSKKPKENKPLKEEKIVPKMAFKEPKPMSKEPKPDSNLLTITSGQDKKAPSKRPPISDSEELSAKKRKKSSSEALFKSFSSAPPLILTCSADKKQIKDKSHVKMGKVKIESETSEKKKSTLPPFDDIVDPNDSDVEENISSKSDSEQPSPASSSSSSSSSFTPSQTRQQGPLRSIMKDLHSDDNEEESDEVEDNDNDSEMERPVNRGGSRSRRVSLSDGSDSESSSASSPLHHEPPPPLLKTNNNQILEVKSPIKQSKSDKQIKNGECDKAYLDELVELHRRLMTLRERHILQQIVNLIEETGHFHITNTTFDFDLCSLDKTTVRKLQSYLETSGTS
FGF22 binding: binders of recombinant human FGF22 by thermal shift; SYPRO orange fluorescence; percent of sucrose octasulfate shift, DMSO zero; calls only at 9.99 µM; actives 1.5% (n = 340,000); AID 651658;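 active = melting point raised past a set limit in the mean and every replicate; inconclusive = no clear call; three in four hits are not shown here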
Bfl-1 A1 inh: inhibitors of the anti-apoptotic protein A1, read as caspase activation; actives 0.066% (n = 330,000); caspase activation, % (test concentration not listed); MEF A1-2A-BIM cells, Caspase-Glo 3/7 luminescence, 3 h; percent of clofoctol response, vehicle zero;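 active = over half of replicate activation scores above 10%, or exactly half above 10 with the replicate mean above 10; inconclusive = replicate mean below 10 yet half the replicates above 10; inactive = over half of replicates below 10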;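 also: wells of about 30 µL received 50 nL stock; many hits fall short of the cut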
rRNA inh HTS: inhibits bacterial ribosomal RNA function over humanized ribosomes. actives 1.6% (n = 350,000). E. coli WT GFP vs humanized-ribosome RFP mutants, fluorescence, 24 h; active compounds read low; DMSO median 0, no signal -100. GFP signal change (wild-type ribosome), % (test concentration not listed);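 active = significant combined selectivity score with lowered wild-type GFP, culture density cut under 30%, mutant RFP and density less affected; inactive = any of these conditions unmet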; also: one replicate is shown; some compounds called inactive have numbers as strong as hits
rRNA inh HTS OD600: recorded beside rRNA inh HTS, whose call it bears; OD600 change, %; measured here: OD600 growth;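 optical density of the mix in the first replicate; 0 = DMSO median and -100 = no signal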
rRNA inh HTS RFP: second read-out of rRNA inh HTS, no call of its own (marks repeat the call); RFP signal change, %; measured here: RFP humanized mutant strains;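 first replicate; 0 = DMSO median and -100 = no signal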
An asterisk follows results filed as active; i = inactive; ? = inconclusive; . = not tested or not shown; & = joins results of further samples. Only part of the results is shown, so the mix of outcomes need not match the whole.

SMILES	T cruzi repl	E coli growth	UCH37 inh	Beta cell apopt	MLL AF4-AF9 inh	FGF22 binding	Bfl-1 A1 inh	rRNA inh HTS	rRNA inh HTS OD600	rRNA inh HTS RFP
Cc1cc(OCC(=O)N(Cc2cccs2)C2CCS(=O)(=O)C2)ccc1Cl (centres undefined)	-8	0.69	4.3	-4	-4.4	i	.	-8	-55	-12
O=c1[nH]ccc2c([N+](=O)[O-])cccc12	0	0.71	7.8	-11	0.9	i	0.8	18	10	4.6
COc1cc(S(=O)(=O)NC2CCCCC2C)ccc1-n1cnnn1 (centres undefined)	-3	.	.	7	0.4	i	-0.2	-12	-12	-1.7
CCCn1c2ccccc2c2cn[nH]c(=O)c21	-1	0.67	-6.7	-4	-2.0	i	-0.3	-7	-4	-2.4
Cc1ccc(Nc2nnc(SCC(=O)c3c(N)n(C4CC4)c(=O)[nH]c3=O)s2)cc1C	.	0.67	2.1	2	0.7	i	1.0	2	4	-2.0
CN(CCNC(=O)c1cccc(N2CCCC2=O)c1)Cc1ccccc1	10	0.7	2.3	-4	.	.	0.5	.	.	.
CCCCC(=O)NC(c1ccc([N+](=O)[O-])cc1)c1c(O)ccc2ccccc12 (centres undefined)	2	.	.	33	8.5	i	0.4	-12	-1	1.6
CCN1CC(CNC(=O)c2ccc3nc(Cc4cccc(Cl)c4)oc3c2)CC1=O (centres undefined)	-10	0.73	-0.9	2	4.0	i	-1.7	10	8	1.6
COc1ccc(C(=O)Nc2cc(C)ccc2NC(=O)COc2ccccc2)cc1	16	0.78	0.5	0	.	.	-0.4	.	.	.
CC(C)[C@H]1C(=O)Nc2ccccc2N1C(=O)N[C@@H](Cc1ccccc1)C(=O)N[C@H](Cc1ccccc1)C(=O)O	11	0.77	-0.1	-5	-1.3	i	0.3	5	-5	-7.4

Overlap with the part before: 6 entries, followed by the next part.
SMILES	T cruzi repl	E coli growth	UCH37 inh	Beta cell apopt	MLL AF4-AF9 inh	FGF22 binding	Bfl-1 A1 inh	rRNA inh HTS	rRNA inh HTS OD600	rRNA inh HTS RFP
Cc1ccc(Nc2nnc(SCC(=O)c3c(N)n(C4CC4)c(=O)[nH]c3=O)s2)cc1C	.	0.67	2.1	2	0.7	i	1.0	2	4	-2.0
CN(CCNC(=O)c1cccc(N2CCCC2=O)c1)Cc1ccccc1	10	0.7	2.3	-4	.	.	0.5	.	.	.
CCCCC(=O)NC(c1ccc([N+](=O)[O-])cc1)c1c(O)ccc2ccccc12 (centres undefined)	2	.	.	33	8.5	i	0.4	-12	-1	1.6
CCN1CC(CNC(=O)c2ccc3nc(Cc4cccc(Cl)c4)oc3c2)CC1=O (centres undefined)	-10	0.73	-0.9	2	4.0	i	-1.7	10	8	1.6
COc1ccc(C(=O)Nc2cc(C)ccc2NC(=O)COc2ccccc2)cc1	16	0.78	0.5	0	.	.	-0.4	.	.	.
CC(C)[C@H]1C(=O)Nc2ccccc2N1C(=O)N[C@@H](Cc1ccccc1)C(=O)N[C@H](Cc1ccccc1)C(=O)O	11	0.77	-0.1	-5	-1.3	i	0.3	5	-5	-7.4
O=C(Oc1ccccc1C(=O)N1CCOCC1)c1ccc(F)cc1	-9	0.67	3.6	-2	-0.8	i	0.6	.	.	.
C=CCN1C(=O)c2ccc(C(=O)N(CC)CC(=O)Nc3c(F)cccc3F)cc2C1=O	-9	0.71	4.8	-12	-2.2	i	-0.1	7	11	-2.4
COCCNC(=O)CSc1nc2nc(C)cc(C)n2n1	-22	0.72	2.7	-1	.	.	0.2	.	.	.
CCOP(=O)(OCC)c1ccc2c(c1)C(=O)c1ccccc1CC2	.	0.65	-1.5	3	.	i	-0.1	-11	-14	1.9
O=c1c2ccccc2c(=O)n(Cc2ccccc2)n1Cc1ccccc1	18	0.71	1.2	5	-2.1	i	0.4	-3	-4	-3.4
COc1ccccc1N(C)S(=O)(=O)c1ccc(Cl)c(C(=O)Nc2cccc(C)n2)c1	0	0.68	1.3	.	2.2	i	-5.4	-17	-27	-0.5
O=C(Nc1ccc(Br)cc1)c1cccnc1N1CCCCC1	8	0.68	1.9	3	-1.9	i	-2.3	-34*	-1.7*	2.4*
COc1ccccc1/C=N/NC(=O)c1ccc2c(c1)OCO2	-23	.	.	-3	-6.8	i	-0.8	-2	6	4.3
COCCCNC(=O)CCc1nc2cccnc2n1Cc1ccccc1	-18	0.77	1.6	2	.	.	0.2	.	.	.
COc1ccc(/C=C/C(=O)C2(O)CCCCC2)cc1	3	0.6	5.5	-15	.	i	0.5	-5	-14	5.5
Cc1ccn2c(=O)nc(SCC(=O)N3CCC(C)CC3)nc2c1	-2	0.63	-2.5	-2	-0.5	i	-0.2	7	7	2.2
CC(C)NC(=O)N(C)C[C@H]1Oc2ccc(NS(=O)(=O)c3ccccc3)cc2C(=O)N([C@H](C)CO)C[C@H]1C	.	.	0.0	3	-3.8&-26	i	0.4	4&3	2&11	-3.2&-1.1
Cc1cc(C)c2nc(NCCCNC(=S)NCCCN(C)C)c(C#N)cc2c1	43	0.63	-79	2	-2.4	i	1.4	0	-2	-6.7
CN1CCN(c2ccccc2NC(=O)c2ccc(-c3ccccc3[N+](=O)[O-])o2)CC1	41	0.69	3.4	2	19	i	-0.4	-18	-33	-1.2
Cc1ccc2c(c1)c1c(n2CC(O)CN2C(=O)CNC2=O)C(=O)CCC1 (centres undefined)	-11	0.7	-108	-1	0.3	i	-0.5	-4	2	-1.2
Cc1cc(C)nc(NC=C2C(=O)OC(C)(C)OC2=O)n1	.	0.69	0.3	2	.	i	0.6	3	12	-0.4
O=C1CC(C(=O)Nc2ccccc2)N=C(N2CCOCC2)N1 (centres undefined)	-7	0.71	3.5	-6	.	.	-0.3	.	.	.
CCc1ccc(OC(C)C(=O)Nc2ccc(S(=O)(=O)Nc3nccs3)cc2)cc1 (centres undefined)	-13	.	.	-3	4.1	i	0.3	-6	-13	-3.2
CCCn1nnnc1SCC(=O)NNC(=O)c1ccco1	-12	0.62	0.7	3	-0.5	i	-0.5	-4	-2	4.3
COCc1ccc(C(=O)N2CCC(CCC(=O)Nc3cccc(C)c3)CC2)s1	-2	0.72	2.2	3	0.2	i	0.7	-1	10	0.1

Retrieved by structure from the list above:
SMILES	T cruzi repl	E coli growth	UCH37 inh	Beta cell apopt	MLL AF4-AF9 inh	FGF22 binding	Bfl-1 A1 inh	rRNA inh HTS	rRNA inh HTS OD600	rRNA inh HTS RFP
O=C(Oc1ccccc1C(=O)N1CCOCC1)c1ccc(F)cc1	-9	0.67	3.6	-2	-0.8	i	0.6	.	.	.
COc1ccc(C(=O)Nc2cc(C)ccc2NC(=O)COc2ccccc2)cc1	16	0.78	0.5	0	.	.	-0.4	.	.	.

(next part)
SMILES	T cruzi repl	E coli growth	UCH37 inh	Beta cell apopt	MLL AF4-AF9 inh	FGF22 binding	Bfl-1 A1 inh	rRNA inh HTS	rRNA inh HTS OD600	rRNA inh HTS RFP
O=C(O)[C@@H](O)c1ccccc1	-13	.	0.6	.	0.0	i	.	.	.	.
COc1ccc(NC(=O)CN2CCN(CC#N)CC2)cc1	-10	0.65	-1.4	1	-0.3	i	1.2	9	5	-0.7
CC(C)C[C@@]12C(=O)N(c3cccc(Cl)c3)C(=O)N1[C@H](c1ccc(Br)cc1)[C@@H]1C(=O)N(C(C)(C)C)C(=O)[C@@H]12	.	0.79	-1.0	11	-0.5	i	-0.6	9	6	-4.3
O=C(COc1ccc(Cl)cc1)NC1CCSC1=O (centres undefined)	0	0.69	0.1	-2	.	.	-0.3	.	.	.
COCCNC(=O)CS(=O)Cc1nc(-c2ccc(OC)cc2)oc1C (centres undefined)	-16	0.78	1.1	-4	0.6	i	-0.3	4	6	-2.4
COc1ccc(NC(=O)CSCC(=O)NCCc2ccccn2)cc1	-18	0.69	0.1	1	-0.2	i	-0.2	7	13	-4.1
Cc1ccccc1NC(=O)COC(=O)c1ccc(S(=O)(=O)N2CCCCCC2)cc1	.	0.7	3.6	.	-1.3	i	.	-4	4	-2.3
CN(CC(=O)NC(=O)NCc1ccccc1)Cc1cccc(Cl)c1Cl	18	0.65	3.7	-4	0.6	i	0.4	-38*	-9.4*	-6.0*
O=C(O)CC1(CC(=O)Nc2ccc3c(c2)C(=O)OC3)CCCCC1	-10	0.7	3.9	-14	0.1	i	?	11	-6	0.7
COc1ccc(CNC(=O)c2ccc(CS(=O)(=O)c3ccccc3C)o2)cc1	3	0.64	-0.4	-9	1.2	i	-0.1	-9	-7	0.9
CCOc1ccc(N(CC(=O)Nc2c(C)n(C)n(-c3ccccc3)c2=O)S(=O)(=O)c2ccc(F)cc2)cc1	-18	0.69	-0.7	-13	0.5	i	0.0	1	1	-1.0
COC(=O)Cn1ncc2c(C)n(Cc3ccccc3)c(C)c2c1=O	-14	0.7	1.8	1	-5.0	i	0.4	-1	11	-0.8
CCOCCCNC(=O)c1c[nH]c2cc(C)ccc2c1=O	3	0.68	2.2	.	.	.	0.4	.	.	.
COc1cccc(NC(=O)COC(=O)c2ccccc2C(=O)N2CCN(c3ccccc3)CC2)c1	1	0.69	4.0	-4	4.1	i	0.8	-13	-15	-3.2
COc1ccc(-c2ccc(C(c3c(C)[nH][nH]c3=O)c3c(C)[nH][nH]c3=O)o2)c([N+](=O)[O-])c1	.	0.69	8.0	.	-0.6	i	.	17	7	1.1
Cc1cc(N2CCN(Cc3ccc4c(c3)OCO4)CC2)n2ncnc2n1	-13	0.72	-0.8	-4	.	.	-0.3	.	.	.
Cc1ccc2c(c1)-c1c(cnn1CC(=O)O)CO2	-18	0.75	1.7	2	.	.	-0.3	.	.	.
CCn1cc(C(=O)O)c(=O)c2cc(F)c(N3CCN(C(=S)NC(=O)c4ccccc4)CC3)cc21	-1	0.077*	-17	-7	6.0	.	1.2	-53	-81	-30
CC(=O)Oc1cccc(-c2nc3ccccc3c(=O)o2)c1	-5	0.64	-4.3	0	-0.5	i	-4.0	14	21	5.5
OCCSc1nc(-c2cccnc2)nc2ccccc12	2	0.7	3.5	6	.	.	0.4	.	.	.

Bioassay records deposited in PubChem by several laboratories.
